NS1 function inh – inhibitors of influenza NS1 protein function | Potency, µM (titrated, usually from 46.1 µM), for inactives: at the highest dose activity, positive = more growth | 0.4% of 270,000 active | AID 2326 | S. cerevisiae slowed by influenza A NS1, growth recovery by OD600; active means well fitted rising curve with a large enough effect; inconclusive means small, poorly fitted or top-dose-only effect; inactive means no such curve, though single readings can be large or run the other way; also: nearly all actives have a fitted effect of over 50% in size
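In this qHTS, NS1 from influenza A is expressed in budding yeast, where it slows growth. Cells are switched from glucose to 2% galactose medium (pH 6.0, -URA), treated with compound, and growth recovery is read at OD600.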
LASV entry inh – blocks Lassa virus binding to or entry into cells | Lassa virus pseudotype entry inhibition, cell reporter; control for the full effect not named in the record | Potency, µM (series often up to 37.9 µM), inactives show at the top dose activity change, negative = inhibition, hits mostly inhibitors | 1.2% of 300,000 active; active means well fitted inhibition curve with a large enough effect; inconclusive means small, poorly fitted or top-dose-only effect, or effect the other way; inactive means flat fitted curve, though single readings scatter; tested in HEK293 cells; also: % is scaled to controls: 0 for no effect and ±100 for the full control effect; nearly all actives have a fitted effect of over 50% in size; luciferase read-out
RE007 growth inh – less growth of the S. pombe RE007 Vpr strain. S. pombe RE007 Vpr strain, BacTiter-Glo ATP luminescence, 24 h; control for the full effect not named in the record. Potency, µM (series often up to 92.2 µM), for the others: at the highest dose activity change, negative = less growth. 0.21% of 360,000 active; active = well fitted falling curve with a large enough effect; inconclusive = small, poorly fitted or top-dose-only effect; inactive = no such curve, though single readings can be large or run the other way;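 also: % is scaled to controls: 0 for no effect and ±100 for the full control effect; nearly all actives have a fitted effect of over 50% in size; the assay follows cell death caused by Vpr and the record does not say whether a fall means rescue or toxicity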
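Fission yeast RE007 carrying one integrated HIV-1 vpr copy, seeded at OD 0.01 in PMG+AL medium with 23 nL pinned compound. Grown 24 h at 30 degrees; viability read by BacTiter-Glo luminescence after 5 min.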
2A StopGo – lowers the luciferase signal of an FMDV 2A StopGo reporter | 1.2% of 410,000 active | AID 1159524 | Potency, µM (top dose mostly 57.9 µM), inactives show at the top dose signal change, negative = less light | human cells with a luciferase reporter of 2A StopGo recoding; control for the full effect not named in the record; active = well fitted falling curve with a large enough effect; inconclusive = small, poorly fitted or top-dose-only effect; inactive = no such curve, though single readings can be large or run the other way; tested in HEK293T cells; also: % is scaled to controls: 0 for no effect and ±100 for the full control effect; nearly all actives have a fitted effect of over 45% in size; luciferase light after 4 h
Cruzain inh noDet – blocks cruzain activity in detergent-free assay. P25779. purified cruzain, Z-FR-AMC fluorescence, no detergent. Potency, µM, inactives show max response, negative = inhibition, hits mostly inhibitors. 2.3% of 200,000 active. AID 1476;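 also: plate controls were enzyme without inhibitor for no effect and buffer without enzyme for full effect; nearly all actives have a fitted effect of over 40% in size; top concentration of the series not given in the record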
Target sequence (P25779 123-467 limits assumed): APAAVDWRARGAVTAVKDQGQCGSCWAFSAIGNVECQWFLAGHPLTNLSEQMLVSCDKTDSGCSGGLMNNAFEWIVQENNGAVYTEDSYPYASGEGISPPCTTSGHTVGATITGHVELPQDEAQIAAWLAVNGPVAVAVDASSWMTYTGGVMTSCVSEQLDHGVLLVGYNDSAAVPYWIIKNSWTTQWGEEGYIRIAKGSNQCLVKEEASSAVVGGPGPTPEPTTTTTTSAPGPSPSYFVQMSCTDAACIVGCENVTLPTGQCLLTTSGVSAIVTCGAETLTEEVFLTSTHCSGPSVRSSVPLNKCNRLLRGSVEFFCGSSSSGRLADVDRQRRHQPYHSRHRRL
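Detergent-free condition (0.00005% Triton X-100) in acetate buffer pH 5.5 with DTT. 1.5 nM enzyme and compound were pre-mixed 15 min, then 2 uM Z-FR-AMC substrate added; reaction progress from fluorescence change between first and third reads (60 s).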
SARS PLP yeast – inhibitors of SARS-CoV papain-like protease in yeast. S. cerevisiae expressing SARS-CoV PLpro, growth rescue; control for the full effect not named in the record. Potency, µM (doses to about 32.9 µM), for inactives: at the top dose activity, positive = growth rescue. 0.19% of 330,000 active; active means well fitted rising curve with a large enough effect; inconclusive means small, poorly fitted or top-dose-only effect; inactive means no such curve, though single readings can be large or run the other way; also: 0% is about no effect; nearly all actives have a fitted effect of over 55% in size; growth read by luminescence after 48 h
Marburg entry inh – Marburg virus entry inhibition; Potency, µM (doses to about 37.8 µM), for inactives: at the highest dose activity change, negative = inhibition, most hits filed as inhibitors; Marburg virus pseudotyped entry inhibition, cell reporter; control for the full effect not named in the record; about a third of the inactives were read at about 46 µM; 1.8% of 300,000 active; active = well fitted inhibition curve with a large enough effect; inconclusive = small, poorly fitted or top-dose-only effect, or effect the other way; inactive = flat fitted curve, though single readings scatter; tested in HEK293 cells; about a fifth of its hits are not listed in these tables; also: % is scaled to controls: 0 for no effect and ±100 for the full control effect; luciferase read-out
Cruzain inh Det – blocks cruzain activity in presence of Triton detergent; P25779; purified cruzain, Z-FR-AMC fluorescence, 0.01% Triton; Potency, µM, inactives show max response, negative = inhibition, usual class: inhibitors; 0.43% of 200,000 active; AID 1478;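 also: plate controls were neutral wells for no effect and buffer without enzyme for full effect; nearly all actives have a fitted effect of over 40% in size; top concentration of the series not given in the record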
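Detergent-containing arm of a paired screen for aggregation-based inhibition: 0.01% Triton X-100 present. Cruzain at 1.5 nM cleaved 2 uM Z-FR-AMC at pH 5.5 with 5 mM DTT; AMC fluorescence gain over 60 s measured activity.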
The depositor's hits bear a star; ? = inconclusive; . = no result given; [ ] = dose if it differs, or a comment. Unless noted, calls follow the shape of the dose curve; as a rule, active = well fitted curve in the direction sought with a large enough effect; inconclusive = small, poorly fitted or top-dose-only effect, or another doubt; inactive = no such curve, though single readings can be large; an effect the other way counts as inactive or inconclusive. Potency is read from the fitted curve at half-maximal effect.

SMILES	NS1 function inh	LASV entry inh	RE007 growth inh	2A StopGo	Cruzain inh noDet	SARS PLP yeast	Marburg entry inh	Cruzain inh Det
O=[N+]([O-])c1ccc(N/N=C2/CCCCC2c2ccccn2)cc1 (stereo not given)	-23%	?	20%	-17%	-15%	-83%	1.1µM*	-14%
O=C(N/N=C/c1ccc2c(c1)OCO2)c1ccn(Cc2ccc(Cl)cc2)n1	2%	?	9%	1%	.	0%	20%	.
O=C(c1cc2ccccc2o1)N1CCN(S(=O)(=O)c2ccccc2)CC1	.	-29%	5%	-8%	.	-6%	-11%	.
COc1cc(NC(=O)c2cc(Cl)ccc2Cl)ccc1NC(=O)c1cc2ccccc2o1	.	-11%[46.1 µM]	.	0%	16µM*	.	.	-5.1%
Cc1ccc(CNC(=O)c2cc(S(=O)(=O)N3CCCC3)cn2C)cc1	6%	.	3%	-8%	.	1%	.	.
CCCCN1C(=O)C(=O)N(CC(=O)Nc2cc(S(=O)(=O)N(C)C)ccc2C)C1=O	.	2%	4%	-7%	.	-6%	-9%[46.1 µM]	.
COc1ccc(N2CC(NC(=O)c3cccc4ccccc34)CC2=O)cc1OC (stereo not given)	.	-4%	-7%	-15%	.	-7%	?	.
O=C1CCN(CCc2ccccc2)CCN1[C@H](CSc1ccc(Br)cc1)Cc1ccccc1	-52%	.	11%	?	.	-14%	.	.
Cc1cccc(C(=O)n2c(=S)nc3ccccn32)c1	-91%	?	?	-46%	-5%	-4%	-3%	-1.8%
Cc1c(NC(=S)NC(=O)CSc2ccc(Cl)cc2)cccc1C(=O)O	9%	10%	-21%	3%	.	-2%	23%	.
N/C(=N\S(=O)(=O)c1cc(C(F)(F)F)cc(C(F)(F)F)c1)c1ccncc1	6%	-9%	43%	29%	.	6%	18%	.
Cc1cccc(Nc2c([N+](=O)[O-])ccc3nonc23)c1C	-1%	.	14%	-18%	.	2%	.	.
CCOC(=O)C1(CCOc2ccccc2)CCN(Cc2ccc(C(=O)OC)cc2)CC1	1%	.	-20%	?	.	-6%	.	.
CN(C)CCOC(=O)CCc1ccccc1	?	17%	42%	0%	-8%	2%	?	8.9%
O=C(O)CCn1cc(/C=C2\NC(=S)N(c3ccccc3)C2=O)c(-c2ccc(Br)cc2)n1	.	5%	1%	-9%	.	2%	11%	.
CCCCNC(=O)CN1C(=O)c2cccc(N)c2C1=O	.	8%	-11%	13%	.	0%	13%[46.1 µM]	.
CC(C)n1c(SCC(=O)Nc2nncs2)nnc1C1CC1	1%	.	6%	-6%	.	-6%	.	.
c1ccc(C2CC(c3ccccc3)n3ncnc3N2)cc1 (stereo not given)	3%	-15%	4%	.	12%	3%	9%	2.9%
CCC(C)N(C(=O)CSc1nc(-c2cccs2)nc2ccccc12)C1CCS(=O)(=O)C1 (stereo not given)	.	?	-26%	-2%	.	.	?	.
COc1ccc2c(c1)cc(C)c1nnc(SCC(=O)N(C)c3nc(-c4ccccc4)cs3)n12	7%	12%	-21%	19%	11%	1%	4%	2.8%
COc1cccc(-n2c(=O)c3sccc3n(CC(=O)NCC3CCCO3)c2=O)c1 (stereo not given)	5%	17%[46.1 µM]	-13%	-1%	.	2%	5%[46.1 µM]	.
COc1cccc(-c2noc(C3CC(=O)N(c4ccc(F)cc4)C3)n2)c1OC (stereo not given)	.	1%[46.1 µM]	.	-19%	-25%	.	.	-2.2%
C=CCn1c(CSc2nc3ccccc3s2)nnc1SCC(=O)NCc1cccnc1	-8%	3%	-10%	-20%	-1%	13%	?	5.5%
COc1ccc(C(CC(=O)O)c2ccc3c(c2)OCO3)cc1 (stereo not given)	6%	-8%	-3%	-4%	.	2%	-14%	.
CC(C)N(Cc1cn[nH]c1-c1ccc(-c2ccccc2)cc1)Cc1nccn1C	2%	-12%[46.1 µM]	12%	-20%	.	0%	?	.
CCS(=O)(=O)N1CCC(c2nc(-c3ccc(C(F)(F)F)cc3)no2)CC1	7%	?	-10%	?	-2%	0%	-1%	1.1%
CC1CCCCN1C(=O)C1CC(c2ccc(F)cc2)=NO1 (stereo not given)	-9%	?	-2%	40%[activator]	10%	1%	-15%	1.7%
O=C(c1c(F)c(F)c(F)c(F)c1F)N1CCc2ccccc21	.	-8%	8%	-10%	.	.	1%[46.1 µM]	.
O=C(N/N=C\c1cc(Br)c(Br)o1)c1cncc(Br)c1	3%	15%	-20%	-4%	-10%	-14%	-1%	-1.8%
CCOC(=O)c1c(/N=C/C2C(=O)CC(C)(C)CC2=O)sc(C)c1C	22%	0%	-28%	-10%	?	3.2µM*	0%	-7.0%
CC/C=C/C(=O)N1CC2(CC(c3cccc(NC(=O)CC(c4ccccc4)c4ccccc4)c3)=NO2)C[C@@H]1C(N)=O (stereo not given in full)	-6%	.	-13%	-6%	.	1%	.	.
O=[N+]([O-])c1cc(Cc2ccccc2)cc(C=Nc2ccc(N3CCOCC3)cc2)c1O	-41%	-9%	-10%	-4%	14%	-68%	-11%	-7.4%
Cn1nc(-c2ccccc2)c(COC(=O)c2cccc(Cl)c2)c1S(=O)(=O)c1ccccc1	1%	-1%	1%	31%[activator]	25µM*	5%	1%	2.0%
Cn1cnnc1SCc1ccc(-c2ccc(Br)cc2)o1	-18%	3%	-27%	-6%	-26%	0%	0%	-3.8%
O=C(CCCCCN1C(=O)[C@@H]2Cc3ccccc3CN2C1=O)Nc1ccccc1Cl	15%	.	-4%	-21%	.	0%	.	.
CCc1c(C)c(C#N)c2nc3ccccc3n2c1NCCOC	-1%	.	1%	-5%	.	-2%	.	.

Molecules listed so far containing a CF3 group:
SMILES	NS1 function inh	LASV entry inh	RE007 growth inh	2A StopGo	Cruzain inh noDet	SARS PLP yeast	Marburg entry inh	Cruzain inh Det
N/C(=N\S(=O)(=O)c1cc(C(F)(F)F)cc(C(F)(F)F)c1)c1ccncc1	6%	-9%	43%	29%	.	6%	18%	.
CCS(=O)(=O)N1CCC(c2nc(-c3ccc(C(F)(F)F)cc3)no2)CC1	7%	?	-10%	?	-2%	0%	-1%	1.1%

The listing continues:
SMILES	NS1 function inh	LASV entry inh	RE007 growth inh	2A StopGo	Cruzain inh noDet	SARS PLP yeast	Marburg entry inh	Cruzain inh Det
COc1cc(SC)ccc1C(=O)NCC1CCCO1 (stereo not given)	0%	1%	-6%	50%[activator]	-5%	1%	7%[46.1 µM]	1.7%
Cc1ccc2c(c1)nnn2C1CCN(CC(=O)Nc2ccc3c(c2)OCCO3)CC1	-17%	?	13%	-10%	-5%	-12%	-1%	1.9%
Cc1cc(C)c(C#N)c(SCc2ccc([N+](=O)[O-])cc2)n1	4%	21%	14%	-7%	.	1%	-1%[46.1 µM]	.
CCC(=NCC1CCCO1)c1c(O)n(-c2ccc(OC)cc2)c(=O)[nH]c1=O (stereo not given)	-2%	?	-4%	-8%	.	0%	33%[46.1 µM]	.
CCN1C(=O)/C(=C2\SC(N3CCCCC3)=NC2=O)c2ccccc21	-61%	27%	6%	.	-10%	2%	1%	-3.5%
CC(=NCc1ccc(F)cc1)c1c(O)n(C)c(=O)n(C)c1=O	-16%	-5%	8%	-26%	0%	12%	0.33µM*	0.7%
Cc1ccc(N=Cc2c(O)[nH]c3ccccc23)c([N+](=O)[O-])c1	.	?	-18%	0%	.	3%	?	.
CCOC(=O)CNC(=S)n1cnc(N)n1	.	3%	-4%	3%	.	0%	-4%[46.1 µM]	.
O=C(/C=C/Nc1ccc(Br)cc1F)c1ccco1	-35%	2.2µM*	?	10µM*	.	-2%	1.4µM*	.
Cc1cccc(C)c1NC(=O)c1ccc(-n2cnnn2)cc1	5%	13%	18%	0%	0%	3%	4%	1.0%
COc1ccc(C2CC(c3ccc4ccccc4c3)=NN2C(=O)COC(=O)C2CCC(=O)N2)cc1 (stereo not given)	.	?	12%	16%	.	-1%	?	.
COc1ccccc1NC(=O)C(=O)NCCC1CCCCN1S(=O)(=O)c1cccs1 (stereo not given)	.	-13%	-18%	-21%	.	-6%	?	.
COc1c(C=O)cc2c3c1CCCN3CCC2	-15%	3%	-16%	-16%	.	-2%	-3%	.
CC1CC1C(=O)OCC(=O)NC(=O)c1ccccc1 (stereo not given)	.	16%	7%	21%	.	5%	4%	.
Cc1cc(Br)ccc1NC(=O)CNC(=O)COc1ccccc1C	.	15%	-8%	?	.	24%	7%	.
CCOC(=O)CNC(=O)C(Cc1ccccc1)NS(=O)(=O)c1cccs1 (stereo not given)	-8%	-1%	5%	9%	-14%	3%	-18%	-12%
Clc1ccc(Sc2ccc(/C=N/n3cnnc3)o2)cc1	-93%	-5%	10%	-29%	6%	-15%	-3%	-11%
CC1(c2ccccc2)CC(C)(C)N2C(=O)C3(C(C#N)=C(N)Oc4cc(O)ccc43)c3cccc1c32 (stereo not given)	6%	17%[14.3 µM]	11%	?	12%	15%	?	-5.7%
Cc1cccc(C(=O)OCC(=O)c2cccc(Br)c2)c1O	-7%	.	18%	35%[activator]	.	1%	.	.
On1c(-c2ccccc2)nc2ccccc21	0%	2%	4%	10%	.	-9%	5%	.
Cc1ccccc1NC(=O)Cn1c(=O)sc2ccccc21	5%	?	14%	-14%	.	-2%	5%	.
COc1ccc(N(C(=O)CNS(=O)(=O)c2ccccc2)C(C(=O)NCc2ccco2)C(C)C)cc1 (stereo not given)	?	-10%[46.1 µM]	10%	-18%	.	0%	-17%[46.1 µM]	.
Cc1ccc(F)cc1N=Cc1c(O)c2ccccc2oc1=O	-4%	.	2%	-9%	.	-3%	.	.
Cc1cc(C)nc(N2C(=O)CC(C(C)c3ccccc3)C2=O)n1 (stereo not given)	0%	-22%	6%	14%	-4%	0%	?	5.8%
CN1C[C@@H]2C(c3ccccc3)C3(c4cccnc4)CC2(C3)[C@H]1c1ccccc1 (stereo not given in full)	11%	.	-11%	0%	-3%	-5%	.	0.7%
CCCc1nnc(NC(=S)Nc2ccccc2)s1	.	-1%	0%	68%[activator]	.	4%	-7%	.
Cc1ccccc1-c1nnn(Cc2ccc(F)cc2Cl)n1	-36%	.	3%	54%[activator]	.	-1%	.	.

High-throughput results: PubChem, National Center for Advancing Translational Sciences (NCATS)
